T. gondii HeLa – Toxoplasma gondii ME49Luc growth in HeLa cells, luciferase, no IFN-y, primary screen (AID 1259421). activity change, negative = inhibition, %. 9.6% of 6,400 active. T. gondii ME49Luc in HeLa, luciferase, 72 h, no IFN-y; active compounds read low; reference of the scale and settings of repeat entries not given here; many of its hits are not listed in these tables;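 active means activity change below -70%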;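 further: about 20 µM from a 10 mM stock diluted 500-fold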
* hit, by the source's call; & = joins results of further samples.

(1) CCN(CC)c1ccc(/C=N/NC(=O)c2ccc(O)cc2)cc1
  T. gondii HeLa: 45&29
(2) O=C1c2cccc(O)c2C(=O)c2c(O)cccc21
  T. gondii HeLa: 1&4
(3) COc1ccc(-c2nc(C(=O)N3CCN(C)CC3)sc2-c2ccc(OC)cc2)cc1
  T. gondii HeLa: 3&25
(4) CCN(CCCc1ccccc1)CCCc1ccccc1
  T. gondii HeLa: 6&27
(5) O=C(O)c1ccccc1Nc1ccccc1
  T. gondii HeLa: -41
(6) CC(=O)CC/C=C(\C)CC/C=C(\C)CC/C=C(\C)CCC=C(C)C
  T. gondii HeLa: -48
(7) N#Cc1cc(CN2CCC(Nc3ncnc4sc(Cl)cc34)CC2)ccc1F
  T. gondii HeLa: 7
(8) O=c1cc(-c2ccccc2O)oc2cc(O)ccc12
  T. gondii HeLa: 190
(9) CC(C)C[C@H](N[C@@H](Cc1cncn1Cc1cc(Cl)cc(Cl)c1)C(=O)O)C(=O)O
  T. gondii HeLa: 7
(10) COC(=O)C1=C(C)NC(C)=C(C(=O)O[C@@H]2CCCN(Cc3ccccc3)C2)[C@@H]1c1cccc([N+](=O)[O-])c1
  T. gondii HeLa: 24

Part of the list above in order of formula weight, ascending.
(8) O=c1cc(-c2ccccc2O)oc2cc(O)ccc12
  T. gondii HeLa: 190
(9) CC(C)C[C@H](N[C@@H](Cc1cncn1Cc1cc(Cl)cc(Cl)c1)C(=O)O)C(=O)O
  T. gondii HeLa: 7
(10) COC(=O)C1=C(C)NC(C)=C(C(=O)O[C@@H]2CCCN(Cc3ccccc3)C2)[C@@H]1c1cccc([N+](=O)[O-])c1
  T. gondii HeLa: 24

Continuation.
(11) COc1ccccc1OCC(O)CO (centres undefined)
  T. gondii HeLa: 4&2
(12) CCOC(=O)c1ccccc1OC(=O)CCCCCCCC(=O)Oc1ccccc1C(=O)OCC
  T. gondii HeLa: 12
(13) CO/N=C(\N)c1ccc(-c2ccc(-c3ccc(/C(N)=N/OC)cc3)o2)cc1
  T. gondii HeLa: 86
(14) Nc1nnc(Sc2ncc([N+](=O)[O-])s2)s1
  T. gondii HeLa: 10
(15) COc1c(C)c(C(=O)c2ccc(N)c(C(=O)O)c2)n2ccccc12
  T. gondii HeLa: 15
(16) CC(=O)N1CCCC1C(=O)O (centres undefined)
  T. gondii HeLa: 6
(17) CCCCn1c(=O)c2[nH]c(C34CC5CC(CC3C5)C4)nc2n(CCCO)c1=O
  T. gondii HeLa: -13&12
(18) CC(NCCC(c1ccccc1)c1ccccc1)c1ccccc1 (centres undefined)
  T. gondii HeLa: -3&11
(19) C[N+]1(C)C2CC[C@H]1CC(OC(=O)C(O)c1ccccc1)C2 (some centres undefined)
  T. gondii HeLa: 10
(20) CCCCOCCOCCOCc1cc2c(cc1CCC)OCO2
  T. gondii HeLa: 18

(21) CCOC(CN1CCN(CC(C)C(=O)c2ccccc2)CC1)c1ccccc1 (centres undefined)
  T. gondii HeLa: 32
(22) COc1ccc([C@@H](C)C(=O)c2ccc(O)cc2O)cc1
  T. gondii HeLa: 19
(23) CC(=O)OC(C)(C)[C@@H]1Cc2cc3ccc(=O)oc3cc2O1
  T. gondii HeLa: -5
(24) C=C[C@@]1(C)CC(=O)[C@]2(O)[C@@]3(C)[C@@H](O)CCC(C)(C)[C@@H]3[C@H](O)[C@H](OC(=O)CCCN3CCN(C)CC3)[C@@]2(C)O1
  T. gondii HeLa: -10
(25) Nc1cc2ncnc(Nc3cccc(Br)c3)c2cc1N
  T. gondii HeLa: 4
(26) Nc1ccc(N=Nc2ccccc2)c(N)n1
  T. gondii HeLa: 43&190&129
(27) CCCCCCCC/C=C\CCCCCCCC(=O)NCCc1ccc(O)c(O)c1
  T. gondii HeLa: 18
(28) CCCCCCCCCCCCCCCC(=O)OC[C@H](COP(=O)(O)OCC[N+](C)(C)C)OC(=O)CCCCCCCCCCCCCCC
  T. gondii HeLa: -5
(29) CN1CCN(C(=O)c2nc3ccc(Cl)cc3[nH]2)CC1
  T. gondii HeLa: 16&2
(30) OC[C@H]1NC[C@@H](O)[C@@H](O)[C@@H]1O
  T. gondii HeLa: 13

(31) C/C(=C\c1ccc(C(=O)O)cc1)c1ccc2c(c1)C(C)(C)CCC2(C)C
  T. gondii HeLa: 9&-5
(32) COc1ccc(Nc2ccn(-c3ccccc3)n2)cc1
  T. gondii HeLa: 404
(33) CC(CN(C)C)C(C)(O)Cc1ccc(Cl)cc1 (centres undefined)
  T. gondii HeLa: 8
(34) CC(C)(C)CC(C)(C)c1ccc(O)c(Cc2ccc(Cl)cc2Cl)c1
  T. gondii HeLa: 8&34
(35) Cc1ncc([N+](=O)[O-])n1C
  T. gondii HeLa: 6
(36) COc1ccc(NS(=O)(=O)c2ccc(N)cc2)nn1
  T. gondii HeLa: 12&-4
(37) NS(=O)(=O)c1cc2c(cc1Cl)NC(CSCc1ccccc1)=NS2(=O)=O
  T. gondii HeLa: -5&5
(38) NC(N)=NCCC[C@H](N)C(=O)NCC(=O)N[C@@H](CC(=O)O)C(=O)N[C@@H](CO)C(=O)O
  T. gondii HeLa: 12
(39) C[n+]1cccc(C(=O)O)c1
  T. gondii HeLa: 14
(40) O=C(c1ccc2nccnc2c1)N1CCCCC1
  T. gondii HeLa: 3

A draw from above in order of length of the SMILES, ascending:
(16) CC(=O)N1CCCC1C(=O)O (centres undefined)
  T. gondii HeLa: 6
(5) O=C(O)c1ccccc1Nc1ccccc1
  T. gondii HeLa: -41
(40) O=C(c1ccc2nccnc2c1)N1CCCCC1
  T. gondii HeLa: 3
(20) CCCCOCCOCCOCc1cc2c(cc1CCC)OCO2
  T. gondii HeLa: 18
(2) O=C1c2cccc(O)c2C(=O)c2c(O)cccc21
  T. gondii HeLa: 1&4
(36) COc1ccc(NS(=O)(=O)c2ccc(N)cc2)nn1
  T. gondii HeLa: 12&-4
(29) CN1CCN(C(=O)c2nc3ccc(Cl)cc3[nH]2)CC1
  T. gondii HeLa: 16&2
(1) CCN(CC)c1ccc(/C=N/NC(=O)c2ccc(O)cc2)cc1
  T. gondii HeLa: 45&29
(27) CCCCCCCC/C=C\CCCCCCCC(=O)NCCc1ccc(O)c(O)c1
  T. gondii HeLa: 18
(7) N#Cc1cc(CN2CCC(Nc3ncnc4sc(Cl)cc34)CC2)ccc1F
  T. gondii HeLa: 7
(15) COc1c(C)c(C(=O)c2ccc(N)c(C(=O)O)c2)n2ccccc12
  T. gondii HeLa: 15
(6) CC(=O)CC/C=C(\C)CC/C=C(\C)CC/C=C(\C)CCC=C(C)C
  T. gondii HeLa: -48

(13) CO/N=C(\N)c1ccc(-c2ccc(-c3ccc(/C(N)=N/OC)cc3)o2)cc1
  T. gondii HeLa: 86
(9) CC(C)C[C@H](N[C@@H](Cc1cncn1Cc1cc(Cl)cc(Cl)c1)C(=O)O)C(=O)O
  T. gondii HeLa: 7
(38) NC(N)=NCCC[C@H](N)C(=O)NCC(=O)N[C@@H](CC(=O)O)C(=O)N[C@@H](CO)C(=O)O
  T. gondii HeLa: 12
(10) COC(=O)C1=C(C)NC(C)=C(C(=O)O[C@@H]2CCCN(Cc3ccccc3)C2)[C@@H]1c1cccc([N+](=O)[O-])c1
  T. gondii HeLa: 24
(24) C=C[C@@]1(C)CC(=O)[C@]2(O)[C@@]3(C)[C@@H](O)CCC(C)(C)[C@@H]3[C@H](O)[C@H](OC(=O)CCCN3CCN(C)CC3)[C@@]2(C)O1
  T. gondii HeLa: -10

(further entries)
(41) CC(=O)Oc1cc2c(c(C)c1OC(C)=O)CC=C1[C@@]2(C)CC[C@@]2(C)C3C[C@](C)(C(=O)O)CC[C@]3(C)CC[C@]12C (some centres undefined)
  T. gondii HeLa: -93*
(42) Oc1ccc2ccccc2c1
  T. gondii HeLa: -46&-32
(43) O=C(Nc1ccccc1)NC1CC(C(=O)O)Nc2cc(Cl)cc(Cl)c21 (centres undefined)
  T. gondii HeLa: 13
(44) O=C(CC(c1ccccc1)c1ccccc1)N1CCN(C(c2ccccc2)c2ccccc2)CC1
  T. gondii HeLa: 62
(45) COc1ccccc1N1CCN(CCCCNC(=O)c2ccc(-c3ccc(C(C)=O)cc3)cc2)CC1
  T. gondii HeLa: 7
(46) O=C(O)c1cc(=O)c2cccc(O)c2[nH]1
  T. gondii HeLa: -75*
(47) O=C(CSc1nc2c(c(=O)n1-c1ccccc1)SCC2)Nc1ccc(-c2ccccc2)cn1
  T. gondii HeLa: -26
(48) N[C@H](Cc1ccc(I)cc1)C(=O)O
  T. gondii HeLa: -22
(49) Cn1cc(C2=C(c3ccc(Cl)cc3Cl)C(=O)NC2=O)c2ccccc21
  T. gondii HeLa: -9&-12
(50) CCSc1ccc2c(c1)N(CCCN1CCN(C)CC1)c1ccccc1S2
  T. gondii HeLa: -12

(51) CC(NCC(O)CP(=O)(O)CC1CCCCC1)c1ccc(Cl)c(Cl)c1 (centres undefined)
  T. gondii HeLa: -2
(52) CC1(C)C2CC[C@]3(C)C(C(=O)C=C4[C@@H]5C[C@@](C)(C(=O)O)CC[C@]5(C)CC[C@]43C)[C@@]2(C)CC[C@@H]1OC(=O)CCC(=O)O (some centres undefined)
  T. gondii HeLa: 6
(53) CCC(C)(Oc1ccc(C2(c3ccc(OC(C)(CC)C(=O)O)cc3)CCCCC2)cc1)C(=O)O (centres undefined)
  T. gondii HeLa: 6
(54) Cc1ccccc1C(=O)Nc1ccc(C(=O)N2CCCC(N(C)C)c3ccccc32)cc1 (centres undefined)
  T. gondii HeLa: 27
(55) Cc1[nH]cnc1CN1CCc2c(c3ccccc3n2C)C1=O
  T. gondii HeLa: 17
(56) CC1CCCC(C)N1 (centres undefined)
  T. gondii HeLa: 20
(57) COc1ncnc(N)c1OC
  T. gondii HeLa: 8

A portion of the library; the hit share may differ from the screen's.
